Rce1 inh: yeast Rce1p protease inhibitors, primary screen, biochemical, fluorescence, cell-free homogeneous | calls only | AID 2563, 2010 | CAAX prenyl protease 2 (Saccharomyces cerevisiae (strain ATCC 204508 / S288c)), Q03530 | actives 0.27% (n = 290,000) | yeast membranes, quenched prenylated peptide cleavage fluorescence;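 active = fall in fluorescence gain of 50% or more versus controls, with final raw signal at or below 3038400; inconclusive = same 50% fall but final raw signal above 3038400; inactive = fall in fluorescence gain under 50%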;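 note: plate controls were neutral control wells for no effect and wells lacking membranes for full effect; tested at 10 µM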
Env fusion inh: inhibitors of HIV-1 Env-driven cell-cell fusion, primary screen, HeLa-JRFL effector, CEM21 target cells, luciferase; inhibition, % at 12.3 µM; actives 1.1% (n = 360,000); AID 651610, 2012;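 active = mean replicate inhibition score of at least 50 and every replicate individually at or above 50; inconclusive = only one of the two criteria met; inactive = mean below 50 and not all replicates reaching 50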;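 note: 0% = plate neutral controls and 100% = maraviroc near 300 nM; one replicate is shown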
CSC inhib: cancer stem cell viability inhibitors, primary screen, luminescence. cancer stem cell-like cells viability. inhibition, % at 7.5 µM. actives 1.1% (n = 300,000). AID 2717, 2010;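 active = mean at 75% or more and at least half the replicates too; inconclusive = mean and replicates disagree; tested in HMLE shEcad cells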;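 note: 0% = median of negative and 100% = median of positive control wells; the first replicate is given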
eIF4H FP inh: human eIF4H binding inhibitors, primary screen, translation initiation inhibitor project, biochemical, uHTS, fluorescence polarization. inhibition, % at 35 µM. actives 0.94% (n = 290,000). AID 2012, 2009. eIF4H fluorescence polarization binding assay;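 active = 50% or more with normal probe brightness, or confirmed in later tests; inconclusive = above 50% with abnormal brightness, or retests that disagree; inactive = below 50% or failed in later tests; about a fifth of its hits are not listed in these tables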;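 note: calls also rest on retests at 20 µM and on dose response follow-up; 0% = protein and probe with vehicle and 100% = probe without protein; strong numbers were not always called active; many hits fall short of the cut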
Yeast UUG start: modulators of yeast start codon fidelity, primary screen, whole organism, S. cerevisiae, single point, plate reader. S. cerevisiae UUG-firefly luciferase reporter, luminescence/redox ratio. activity score, % at 18.7 µM. actives 0.13% (n = 350,000);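 active = replicate mean at a twofold rise or more, about +100% in these data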;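 note: firefly luciferase made from a UUG start codon reports start codon fidelity; reporter light over untreated wells divided by growth signal over untreated wells; some hits fall short of that in this replicate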
MT1-MMP act inh: blockers of MT1-MMP proenzyme processing, primary screen, HT1080 RFP-PRO-GFP cells, GFP/RFP fluorescence. GFP/RFP ratio fluorescence, overnight; percent of plate control window, DMSO zero. GFP/RFP ratio change, % at 20 µM. actives 0.061% (n = 360,000);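 active = GFP/RFP ratio change of at least 30% with cell ATP level not reduced by more than half and red fluorescence within 50% of control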; note: strong numbers were not always called active
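Assay system: HT1080 cells carrying an RFP-PRO-GFP reporter | Dosing: Single dose of 20 µM compound, 1% DMSO final | Incubation: Cells overnight before dosing, compound overnight, 37 °C, 5% CO2 | Evaluation: GFP/RFP fluorescence ratio | Control set: DMSO and RFP-L50D-GFP cell wells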
PABP FP inh: PABP poly(A) RNA binding inhibitors, primary screen, biochemical, fluorescence polarization, uHTS; Polyadenylate-binding protein 1 (Homo sapiens), P11940; inhibition, % at 35 µM; actives 1% (n = 290,000); AID 2014, 2009;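 active = 50% or more with normal probe brightness, or confirmed in later tests; inconclusive = above 50% with abnormal brightness, or retests that disagree; inactive = below 50% or failed in later tests; about a fifth of its hits are not listed in these tables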;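 note: calls also rest on retests at 20 µM and on dose response follow-up; controls were probe without protein and protein plus probe with vehicle; some compounds called inactive have numbers as strong as hits; many hits fall short of the cut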
Target sequence (P11940 whole entry, looked up): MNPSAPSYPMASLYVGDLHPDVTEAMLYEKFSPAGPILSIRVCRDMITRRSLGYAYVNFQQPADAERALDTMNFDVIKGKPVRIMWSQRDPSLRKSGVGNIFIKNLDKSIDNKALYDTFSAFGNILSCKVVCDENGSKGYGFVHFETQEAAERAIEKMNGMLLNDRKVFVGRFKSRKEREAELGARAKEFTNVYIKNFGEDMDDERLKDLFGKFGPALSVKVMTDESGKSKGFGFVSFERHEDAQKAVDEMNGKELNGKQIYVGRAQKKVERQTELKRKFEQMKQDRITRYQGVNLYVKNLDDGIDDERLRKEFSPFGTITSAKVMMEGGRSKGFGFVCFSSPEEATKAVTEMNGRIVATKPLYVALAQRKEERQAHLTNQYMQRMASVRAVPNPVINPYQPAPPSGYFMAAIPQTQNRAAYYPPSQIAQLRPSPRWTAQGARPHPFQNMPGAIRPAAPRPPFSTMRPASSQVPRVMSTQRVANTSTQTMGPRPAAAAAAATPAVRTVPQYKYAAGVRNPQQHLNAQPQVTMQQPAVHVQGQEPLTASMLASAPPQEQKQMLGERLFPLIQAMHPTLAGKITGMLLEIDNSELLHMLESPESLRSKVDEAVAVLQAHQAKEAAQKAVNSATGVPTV
eIF4H FP inh retest: recorded beside eIF4H FP inh, whose call it bears; inhibition, %; compound at 20 µM; confirmation average;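 mean of two retest wells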
PABP FP inh retest: recorded beside PABP FP inh, whose call it bears; inhibition, %; compound at 20 µM; confirmation repeats;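 mean of two retest wells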
MT1-MMP act inh RFP: second read-out of MT1-MMP act inh, no call of its own (marks repeat the call); RFP signal change, %; measured here: RFP expression control read;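 0 = vehicle wells; hits needed this value within 50% of zero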
* marks the source's active call; other numbers are inactive results; i = inactive; ? = inconclusive; . = not tested or not shown; + = active, no number; & = joins results of further samples. Compounds as they come; 3% or so of the library scored in one or more.

SMILES	Rce1 inh	Env fusion inh	CSC inhib	eIF4H FP inh	Yeast UUG start	MT1-MMP act inh	MT1-MMP act inh RFP	PABP FP inh	others
O=C(NCc1nc(-c2ccccc2)no1)Nc1ccc(F)cc1	i	-16	-4	12	.	4	3	6
CC1=C(c2ccccc2)[N+](=O)C2(CCCC2)N1[O-]	i	-6	-11	-3	-15	1	4	-1
C[C@@]12C(=O)OC(=O)[C@]1(C)C1CCC2O1	.	105*	109*	.	-5	-16	-33	.
COc1ccccc1C(=O)Nc1ccc2nc(SCC(=O)N(C)C)sc2c1	i	.	-6	9	.	2	0	6
CCOc1ccc(NC(=O)CN2C(=O)NC(CCSC)C2=O)cc1 (stereo not drawn)	i	-12	-3	-2	.	-6	-3	-8
COc1cc(C(C)=O)ccc1OCC(=O)Nc1cc(C)on1	.	.	-3	.	-4	2	1	.
COc1cc2c(cc1OC)CN(c1nc(-c3cccnc3)nc3ccccc13)CC2	i	13	-10	-5	10	-2	-4	10
CCc1noc(C)c1C(=O)Nc1nc2ccc(OC)cc2s1	i	-25	8	.	.	18	-2	.
CCCCCOc1ccc(C(=O)OCC(=O)Nc2cc(C)c(C)cc2[N+](=O)[O-])cc1	i	-8	-2	-4	.	-5	3	-6
O=C(NCc1ccc(F)cc1)c1cc2ccccn2n1	i	-6	-5	2	-14	1	2	-13
CC(Sc1nnc(CC(C)c2ccccc2)n1N)C(N)=O (stereo not drawn)	i	10	-2	-4	-15	2	2	-4
CCCc1c(C(=O)Nc2cc(C(C)(C)C)on2)cnn1-c1ccccc1	i	22	-5	-2	.	8	-6	4
Cn1nc(C(=O)Nc2cccc(C(=O)NC3CC3)c2)c2ccccc2c1=O	.	-6	.	.	-7	5	7	.
O=C1CC(SC(=Nc2ccccc2)Nc2ccccc2)C(=O)N1c1cccc(Cl)c1 (stereo not drawn)	i	.	63	-8	-13	2	-6	-3
Cc1snc(S(=O)(=O)/C(C#N)=N/Nc2ccc(C(F)(F)F)cc2)c1C#N	i	.	89*	-3	.	-3	-2	15
CC(=O)c1ccc(NC(=O)COC(=O)c2nc(Cl)ccc2Cl)cc1	i	-1	-7	-2	.	-2	2	12
O=S(=O)(c1ccccc1)c1cnc(-c2cccnc2)nc1-c1ccccc1	?	-19	-11	-3	-10	-4	0	-14
CCOc1ccc(C(=O)N(Cc2ccc(N(C)C)cc2)C2CCS(=O)(=O)C2)cc1 (stereo not drawn)	i	-16	.	-4	13	-5	-4	3
CCc1cc(=O)oc2c(C)c(OCC(=O)N3CCC(C(=O)O)CC3)ccc12	i	.	-9	-4	-29	2	3	-8
CCOc1ccc(OCc2ccc(C(=O)N3CCOCC3)cc2)cc1	i	-3	-2	3	-6	1	-1	0
COc1ccc(Cc2nnc(NC(=O)CSc3ccc(Cl)cc3)s2)cc1OC	.	8	.	-9	.	.	.	7
Cc1cc(C)c(S(N)(=O)=O)c(C)c1-n1cnnn1	i	-25	11	2	-7	-1	3	0
Clc1cccc(-c2nc3c4ccccc4ccn3c2Cc2ccsc2)c1	.	17	.	.	-24	-2	-1	.
O=C1/C(=C/c2ccc(N3CCOCC3)o2)SC(=Nc2ccccc2)N1CCc1c[nH]c2ccccc12	i	.	85*	-7	-22	-491	-26	-12
Oc1ccc(/C=C/c2cnccn2)cc1	i	-4	-1	5	.	-4	-3	1

Overlap with the part before: 2 compounds, followed by the next part.
SMILES	Rce1 inh	Env fusion inh	CSC inhib	eIF4H FP inh	Yeast UUG start	MT1-MMP act inh	MT1-MMP act inh RFP	PABP FP inh	others
O=C1/C(=C/c2ccc(N3CCOCC3)o2)SC(=Nc2ccccc2)N1CCc1c[nH]c2ccccc12	i	.	85*	-7	-22	-491	-26	-12
Oc1ccc(/C=C/c2cnccn2)cc1	i	-4	-1	5	.	-4	-3	1
CC(C)OC(=O)c1cc(C(=O)c2cc(F)ccc2O)coc1=N	i	15	15	4	-4	-41	-1	-3
COc1ccc(C(C(=O)NC2CCCC2)N(C(=O)c2ccoc2C)c2ccccc2)cc1 (stereo not drawn)	i	12	-7	-11	-11	-1	-4	-7
Cc1nn(C(C)(C)C)c(OC(=O)C2CCCC2)c1S(=O)(=O)c1ccccc1	i	.	.	-6	-5	-5	-2	-2
CCCCC1=CC2=CC(=O)C(C)(OC(=O)CC)C(=O)C2=CN1CCc1ccccn1 (stereo not drawn)	i	-71	-7	37	-3	-6	7	38
CC(C)Cn1c(N)c(C(=O)COC(=O)C2CCCCC2)c(=O)n(C)c1=O	i	-97	-13	3	-3	2	-5	2
O=C(CCNC(=O)c1ccc(Br)cc1)Nc1ncccc1O	i	-9	-11	12	-21	-1	2	-4
Nc1ccc(NC(=O)NC2CCCCC2)cc1[N+](=O)[O-]	i	-12	-15	-1	-10	12	0	16
O=C(O)CNS(=O)(=O)c1ccc2c(c1)Cc1cc(S(=O)(=O)NCC(=O)O)ccc1-2	.	1	-4	-9	5	0	4	6
CCOC(=O)c1nn(-c2ccc(Cl)cc2)c(C)cc1=O	i	-7	-10	-3	-23	-1	4	10
CN(C)c1ccc(CC2C(=O)Nc3ccccc32)cc1 (stereo not drawn)	i	-15	-2	12	.	5	10	5
CCOc1cc(N2CCOCC2)c(OCC)cc1NC(=O)CN1C(=O)NC(C)(C2CC2)C1=O (stereo not drawn)	i	4	-11	1	.	-1	0	13
Cc1cccc(NC(=O)/C(C#N)=C/c2ccc(F)cc2)n1	i	-8	12	-6	-9	-2	0	3
C[C@@H]1CN([C@@H](C)CO)C(=O)c2cccc(NS(=O)(=O)c3cccs3)c2O[C@H]1CN(C)Cc1ccc(C(F)(F)F)cc1	.	-27	-15	.	-19	3	-2	.
Cc1ccc(NC(=O)CSc2nnc3n2CCCCC3)cc1	i	15	4	-14	.	4	-1	8
S=C(Nc1ccccc1Cl)N1CCOCC1	i	6	-15	1	.	-1	1	30
CC(=O)Nc1ccc(S(=O)(=O)Nc2nc3ccccc3nc2-n2ccc(=NC(=O)c3ccc(F)cc3)cc2)cc1	i	-11	.	-9	-3	6	2	0
Cc1ccsc1/C=N/NC(=O)C1CC(=O)N(c2ccc(F)cc2)C1 (stereo not drawn)	i	0	.	-7	.	1	-2	1
CCN1CCN(C(CC(C)C)c2nnnn2CS(=O)(=O)c2ccc(C)cc2)CC1 (stereo not drawn)	i	14	0	-1	-20	-5	-1	6
Cc1cccc(C(=O)OCC(=O)NCC(C)C)c1O	i	2	14	-7	-19	0	6	-6
CCOC(=O)[C@@H]1[C@H]2COc3ccc(Br)cc3[C@@H]2N2C(=O)N(c3ccccc3)C(=O)[C@]12C	i	-18	-15	-2	-8	1	1	10
COc1ccc(N2CCN(C(=O)CNC(=O)c3cccc(Br)c3)CC2)cc1	i	6	-10	2	-4	-1	0	5
CCO[C@@H]1OC(C(=O)N2CCN(Cc3ccccc3)CC2)=C[C@H](c2ccccc2)[C@H]1CCCO	+	9	-11	0	16	23	10	-1
CCN(CC)C(=O)Oc1nnc(SC(C)C)n1-c1ccc(Cl)cc1	i	5	13	-2	.	0	-1	3
O=C(CNc1c(Br)cc(Br)cc1Br)NN=C1CCCCC1	i	.	-13	-5	.	.	.	45
NC(=O)C1(NC(=O)[C@@H]2CC3(CC(c4cccc(NC(=O)[C@@H]5CCC(=O)N5)c4)=NO3)CN2C(=O)c2ccccc2)CC1 (stereo partly drawn)	i	-26	0	3	11	8	5	2
Next section.
SMILES	Rce1 inh	Env fusion inh	CSC inhib	eIF4H FP inh	Yeast UUG start	MT1-MMP act inh	MT1-MMP act inh RFP	PABP FP inh	others
CCCC(C)C(=O)Nc1ncc(S(=O)(=O)c2ccc([N+](=O)[O-])cc2)s1 (stereo not drawn)	i	36	6	-4	-2	-5	-12	3
CCCNS(=O)(=O)c1ccc(CCC(=O)NCCc2ccc(OC)c(OC)c2)cc1	i	14	-10	-4	.	2	-1	-2
CCOC(=O)CC1Sc2ccccc2NC1=O (stereo not drawn)	i	.	-9	7	4	-1	3	-1
Cc1ncc([N+](=O)[O-])n1S(=O)(=O)c1ccc2c(c1)OCCO2	.	-3	.	.	-16	-2	4	.
CCCCn1c2ccc(F)cc2c2nnc(SCCN3CCCCC3)nc21	i	9	.	4	-18	-5	-6	12
Cn1nc(C(C)(C)C)cc1C(=O)N1CCCCC1c1cc(C(=O)Nc2ccc(F)c(Cl)c2)no1 (stereo not drawn)	.	44	.	.	-10	-8	-29	.
CC(=O)c1ccc(NC(=O)c2noc3c2CCC3)cc1	i	16	4	76	-20	1	3	-16	eIF4H FP inh retest=-3;PABP FP inh retest=1
CCOC(=O)Nc1cccc(NC(=O)c2ccccc2F)c1	i	7	-10	-2	6	-5	-3	3
O=C(NCC1CCCO1)c1ccc2c(=O)n(-c3ccc(F)cc3)c(=S)[nH]c2c1 (stereo not drawn)	i	11	-4	-6	-6	-2	-5	3
CCCN1CCc2c(sc3nc(SCC)n(-c4ccccc4)c(=O)c23)C1	i	.	.	90	-13	-12	-9	19	eIF4H FP inh retest=5;PABP FP inh retest=12
COc1ccc(C2C(C(=O)O)CC(=O)N2C2CCCCC2)cc1 (stereo not drawn)	i	.	.	0	3	-2	5	8
O=C(c1ccc(F)cc1F)N1CCN(S(=O)(=O)c2ccc3c(c2)OCCO3)CC1	.	-12	-18	.	-6	2	-7	.
O=C(NNc1c(F)c(F)cc(F)c1F)c1ccc(Cl)nc1	.	-6	-5	-14	-12	-2	-1	-6
C[C@H](CO)N1C[C@H](C)[C@@H](CN(C)C(=O)Nc2ccnc(N3CCOCC3)c2)OCc2cnnn2CCCC1=O	.	-1	.	.	2&3&3	4	9	.
[O-][n+]1onc2c3ccnnc3ccc21	i	.	-2	-13	-12	0	1	2
COc1ccccc1OCCNC(=O)c1ccc2c(c1)CCC2	i	-25	3	-5	3	1	5	3
O=P(O)(O)CP(=O)(O)O	i	.	.	7	1	.	.	14
Fc1ccccc1-c1nc(-c2ccc(-c3nn[nH]n3)cc2)no1	.	-75	.	.	-14	-2	3	.
CO/N=C\CC(=O)Nc1ccc(F)cc1	i	-3	.	-10	-18	5	6	0
N#Cc1ccc(C(=O)Nc2cc(-c3ccc(F)cc3)nn2-c2ccccc2)cc1	.	12	2	.	-5	-1	-17	.
CC1(OC(=O)C2CCCC2)C(=O)C=C2C=C(c3ccsc3)N(CCc3c[nH]c4ccccc34)C=C2C1=O (stereo not drawn)	i	.	39	16	-18	1	7	-1
COc1ccc(NC(=O)c2cnn(-c3ccccc3)c2C)cc1	i	-62	25	6	-5	0	-3	-4
O=C(CC1OC(=O)c2ccccc21)Nc1cc(S(=O)(=O)N2CCOCC2)ccc1OCC(F)(F)F (stereo not drawn)	i	-1	-7	.	-18	-1	3	.
O=C(CN1CCOCC1)Nc1ccc(OCc2ccccc2)cc1	i	-77	2	1	-2	-5	-3	-9
CC(=O)C12OC(C)(C)OC1CC1C3CCC4=CC(=O)C=CC4(C)C3(F)C(O)CC12C (stereo not drawn)	.	-227	.	.	-10	-2	4	.
CCOC(=O)N1CCN(C(=O)c2cc(-c3ccncc3)nc3ccccc23)CC1	i	8	31	.	.	-5	-9	.
